E coli growth: blocks Escherichia coli growth; OD600, 23 h; active compounds read low; OD600 absorbance (test concentration not listed); hit rate 0.21% among 330,000;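 active = OD600 absorbance below the run mean of sample wells minus 3.6 SD, in any replicate, cut at about 0.56 in these data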;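 note: stock transfer was 300 nL into about 60 µL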
ALR H2O2 inh: human ALR oxidase inhibition via reduced H2O2. P55789. purified ALR, DTT oxidation, H2O2 HRP-luminol luminescence. inhibition, % (test concentration not listed). hit rate 3.8% among 290,000. AID 485317;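 active = mean and each replicate at 75% or more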;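 note: stock transfer was 7.5 nL into about 7.5 µL; 0% = neutral wells and 100% = wells with inactivated enzyme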
UCH37 inh: inhibitors of human deubiquitinating enzyme UCH37; purified proteasome/UCH37, Ub-AMC cleavage fluorescence; inhibition, % (test concentration not listed); hit rate 0.33% among 330,000; AID 588478;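 active = mean of two replicates above 20%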;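 note: 0% = compound-free wells with enzyme and 100% = wells lacking proteasome; stock transfer was 100 nL into about 20 µL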
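System: Proteasome-associated human UCH37 deubiquitinase; Input: 0.15 nM proteasome in added enzyme buffer; Also added: Ub-AMC substrate from 1 µM stock; Incubation: 30 min compound-proteasome preincubation then 25 min substrate reaction, room temperature; Detection: fluorescence, ex 355 nm, em 460 nm; Read-out: % inhibition of Ub-AMC cleavage fluorescence; Benchmarks: no-proteasome and no-compound wells.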
FGF22 binding: FGF22 (human) thermal shift binding; calls only at 9.99 µM; Q9HCT0; AID 651658; recombinant FGF22 thermal shift, SYPRO orange fluorescence; percent of sucrose octasulfate shift, DMSO zero; hit rate 1.5% among 340,000;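 active = melting point raised past a set limit in the mean and every replicate; three in four hits are not shown here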
LANA-H2B inh: blocks KSHV LANA binding to histone H2A/H2B | inhibition, % (concentration not given with the values) | cell-free LANA-H2A/H2B peptide, fluorescence polarization | hit rate 0.6% among 320,000; in the data active = inhibition mostly above about 10%, no sharp cut-off; inactive = mostly below about 6.7%;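 note: stock transfer was 7.5 nL into about 10 µL; 0% = median of vehicle wells and 100% = median of positive control wells; one replicate is shown; the record names a cut of 25% in any replicate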
HNF4A DNA FP: change in binding of human HNF4 alpha to DNA; HNF4a-FITC DNA binding, fluorescence polarization, 1 h; activity change, % at 10 µM; hit rate 0.3% among 360,000; in the data active = activity change above about 30%, passing the limit was not always enough;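 note: controls were the assay level and a saturating level of protein; the project sought stronger binding though the title names inhibitors; some compounds called inactive have numbers as strong as hits; positive values seem to mean higher polarization but the record does not say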
Beta2AR agonist: human beta-2 adrenergic receptor agonism by FAP; P07550; Am2.2-beta2AR cells, FAP receptor internalization, flow cytometry; reference of the scale not given here; response, % (test concentration not listed); hit rate 0.43% among 340,000; AID 504454;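 active = response above a set limit, near 3 SD of response in nonfluorescent compounds, cut at about 42% in these data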;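 note: stock transfer was 100 nL into about 11 µL; a reference agonist was the positive control; negative values mostly stem from fluorescent compounds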
* marks the source's active call; other numbers are inactive results; i = inactive; · = no result given.

SMILES	E coli growth	ALR H2O2 inh	UCH37 inh	FGF22 binding	LANA-H2B inh	HNF4A DNA FP	Beta2AR agonist
COc1ccc(CCn2c(O)c(C3=c4ccccc4=NC3=O)sc2=S)cc1OC	0.683	·	6.2	i	-1.7	2.3	1.1
COc1ccc(-c2nnn(CC(=O)N(CC(=O)NC3CCCC3)Cc3ccco3)n2)cc1OC	0.71	·	1.8	i	-0.5	-4.6	6.8
CCC(=O)N1CCCc2cc(S(=O)(=O)N3CCN(c4ccccc4F)CC3)ccc21	0.738	1.7	5.3	i	3.3	-0.9	10.3
CC(C)(C)/C(O)=C/c1nc2ccccc2[nH]c1=O	0.693	1.3	-1.3	·	6.3	1.6	-29.2
CCCCNC(=O)CNC(=S)N(Cc1ccc(C)cc1)Cc1ccco1	0.684	·	-0.8	i	-5.3	5.4	-4.8
Cc1ccc(S(=O)(=O)NCC(=O)OCC(=O)Nc2cccc(S(=O)(=O)NC3=NCCCCC3)c2)cc1C	0.736	-0.7	3.8	i	0.1	2.3	-2.8
Cc1ccc(NC(=O)c2cc([N+](=O)[O-])ccc2N2CCOCC2)cc1C	0.689	1.5	7.0	i	-8.1	-1.8	-10.0
COc1cc(O)c(CCC(=O)c2cc(OC)c(OC)c(OC)c2)c(OC)c1	0.682	19.3	0.9	·	-11.0	-2.0	11.1
Cc1cccc(NC(=O)c2ccc(S(=O)(=O)N(C)CC3CCCO3)cc2)c1C (centres undefined)	0.709	-10.6	1.0	i	2.6	-0.2	-7.2
CC(=O)c1cc(Cl)ccc1OCc1cccc(S(=O)(=O)N2CCOCC2)c1	0.711	-2.0	1.9	i	5.8	3.8	-7.0
O=C(Nc1cc(S(=O)(=O)Nc2ccccc2Cl)ccc1O)c1sc2cc(Cl)ccc2c1Cl	0.734	-5.3	-13.4	·	1.6	4.7	0.1
O=C(O)c1ccc(S(=O)(=O)c2ccc3c(c2)C(=O)N(NC(=O)c2ccncc2)C3=O)cc1	0.681	·	4.1	i	3.6	5.4	-3.5
Cc1ccc(S(=O)(=O)SCCCSS(=O)(=O)c2ccc(C)cc2)cc1	0.709	·	1.1	i	·	-1.2	-2.5
Cc1nnc(NC(=O)CSc2nc(C3CCCCC3)nc3ccccc23)s1	0.752	-39.6	-1.1	i	-3.8	-2.0	-21.0
CC1=C(C)CC(C(=O)Nc2nc(-c3ccc(F)cc3)c(C)s2)C(C(=O)O)C1 (centres undefined)	0.682	15.2	2.6	i	-0.2	6.0	7.4
CCCCNC1=C(Br)C(=O)CC(C)(C)C1	0.685	-11.5	0.6	·	0.5	-0.6	-1.9
Cc1ccccc1N1CCN(C(=O)c2ccccc2NC(=O)/C=C\C(=O)O)CC1	0.683	13.1	0.8	·	2.6	-0.7	-0.1
C[C@H](NC(=O)c1cc2cc(Cl)ccc2n1C)C(=O)N1CCC[C@H]1C(=O)O	0.706	·	2.5	i	3.4	1.2	15.2
Cc1ccc(C)c(OCC(O)CN2CCC(C)CC2)c1C (centres undefined)	0.769	10.5	2.2	·	-3.9	-2.9	7.6
Cc1cccc(OCC(=O)Nc2cc(S(=O)(=O)N3CCCCC3)ccc2N2CCN(C)CC2)c1	0.676	·	2.1	i	-9.1	-1.2	0.5
CC(NC(=O)c1nn(C)c(=O)c2ccccc12)c1ccc(F)cc1 (centres undefined)	0.668	-0.4	-0.7	·	-1.5	-0.2	1.6
O=C(c1cccc2ccccc12)N1CCN(c2ccc([N+](=O)[O-])c(N3CCOCC3)c2)CC1	0.733	-3.4	8.2	i	-9.8	0.2	1.3
O=C(COc1ccccc1)N1CCN(c2ncnc3c2cnn3-c2ccccc2)CC1	0.701	·	2.5	·	3.3	0.1	-1.9
CC(O)C(=O)N/N=C/c1cccc2ccccc12 (centres undefined)	·	·	·	i	·	3.4	-0.5

Ordered by value in ALR H2O2 inh (lowest first): three from the list above.
molecule	E coli growth	ALR H2O2 inh	UCH37 inh	FGF22 binding	LANA-H2B inh	HNF4A DNA FP	Beta2AR agonist
Cc1cccc(NC(=O)c2ccc(S(=O)(=O)N(C)CC3CCCO3)cc2)c1C (centres undefined)	0.709	-10.6	1.0	i	2.6	-0.2	-7.2
O=C(c1cccc2ccccc12)N1CCN(c2ccc([N+](=O)[O-])c(N3CCOCC3)c2)CC1	0.733	-3.4	8.2	i	-9.8	0.2	1.3
COc1cc(O)c(CCC(=O)c2cc(OC)c(OC)c(OC)c2)c(OC)c1	0.682	19.3	0.9	·	-11.0	-2.0	11.1

(next part)
SMILES	E coli growth	ALR H2O2 inh	UCH37 inh	FGF22 binding	LANA-H2B inh	HNF4A DNA FP	Beta2AR agonist
Cc1nc2ccccn2c1C(=O)NNC(=O)Nc1cccc(C(F)(F)F)c1	0.662	35.7	0.7	i	-7.8	-1.1	-2.5
CCN(CC)S(=O)(=O)c1cccc(NC(=O)COC(=O)c2cncc(Br)c2)c1	0.721	-1.8	1.2	i	0.0	3.4	-2.0
O=C(NCCSc1c[nH]c2ccccc12)C1CC1	0.647	98.5*	4.9	i	3.7	-0.9	35.2
CCCCNC(=O)c1cn(CC)c2ccc(S(=O)(=O)N3CCCCCC3)cc2c1=O	0.71	-3.8	2.9	i	-1.0	-2.1	-2.1
COC(=O)C(C(=O)Nc1cccc(Cl)c1C)C1CCCC1 (centres undefined)	0.713	-6.7	-0.9	i	0.3	-0.9	-3.4
Cc1ccc(S(=O)(=O)N2CCOCC2)cc1C(=O)N1CC(C)OC(C)C1 (centres undefined)	0.664	3.5	1.0	i	0.2	2.2	3.2
O=c1[nH]c(Cc2cccs2)nc2ccccc12	0.621	-12.9	1.4	·	-1.8	1.5	-6.4
CN(C)CCNc1ccc(-c2n[nH]c(=O)c3ccccc23)cc1[N+](=O)[O-]	0.676	·	6.1	i	·	1.1	15.6
CCOC(=O)N1CCC(NC(=O)c2cc(C(=O)NC3CCN(Cc4ccccc4)CC3)ccc2CO)CC1	0.72	-3.5	-0.6	i	0.7	0.2	-1.7
COc1cc(/C=C/C(=O)Nc2nnc(CC(C)(C)C)s2)cc(OC)c1OC	0.701	32.5	-219.4	i	5.9	2.1	7.5
O=C(O)C1C2C=CC(O2)C1C(=O)Nc1ccc(S(=O)(=O)Nc2ccccc2)cc1 (centres undefined)	0.68	-2.3	1.9	·	0.2	0.5	2.1
Cc1cccc(NC(=O)CN2C(=O)COc3ccc(Cl)cc32)c1C	0.767	13.8	0.0	i	-1.7	2.2	3.1

Whole records from above. Order of screens: E coli growth	ALR H2O2 inh	UCH37 inh	FGF22 binding	LANA-H2B inh	HNF4A DNA FP	Beta2AR agonist
Profile of COC(=O)C(C(=O)Nc1cccc(Cl)c1C)C1CCCC1 (centres undefined) = 0.713	-6.7	-0.9	i	0.3	-0.9	-3.4
Profile of O=C(Nc1cc(S(=O)(=O)Nc2ccccc2Cl)ccc1O)c1sc2cc(Cl)ccc2c1Cl = 0.734	-5.3	-13.4	·	1.6	4.7	0.1
Profile of Cc1ccc(S(=O)(=O)NCC(=O)OCC(=O)Nc2cccc(S(=O)(=O)NC3=NCCCCC3)c2)cc1C = 0.736	-0.7	3.8	i	0.1	2.3	-2.8
Profile of O=C(NCCSc1c[nH]c2ccccc12)C1CC1 = 0.647	98.5*	4.9	i	3.7	-0.9	35.2
Profile of O=C(O)c1ccc(S(=O)(=O)c2ccc3c(c2)C(=O)N(NC(=O)c2ccncc2)C3=O)cc1 = 0.681	·	4.1	i	3.6	5.4	-3.5

Assay outcomes: PubChem BioAssay, several laboratories

Not all compounds are listed; rates above refer to the full screens.
